# Bioassay records as filed in PubChem.
# NOMO-1 viab: NOMO-1 AML cell viability reduction, primary screen, STK33 inhibitor project, CellTiter-Glo luminescence | NOMO-1 AML viability, 72 h | inhibition, % (concentration not given with the values) | 37,000 compounds, 7.5% hits | AID 2330, 2010;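 active means most replicates above 80%; inconclusive means exactly half above 80%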;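 further: wells of about 30 µL received 25 nL stock; 0% = median of vehicle wells and 100% = reference inhibitor level; the first replicate is given; inactives centre near 10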
# An asterisk follows results filed as active; ? = inconclusive. The list is partial; rates above refer to the full screens.
SMILES,NOMO-1 viab
CC(C)Cc1nc(SC(C)C(=O)Nc2ccc(Cl)cc2)n[nH]1 (stereo unspecified),31.9
CNC[C@H]1Oc2c(NC(=O)c3nc4ccccc4s3)cccc2C(=O)N([C@H](C)CO)C[C@@H]1C,97.3*
CCC(O)c1ccc2c(=O)c(-c3ccccc3F)coc2c1 (stereo unspecified),21.3
COc1ccc(S(=O)(=O)Nc2ccc3c(c2)CC(=O)N([C@H](C)CO)C[C@H](C)[C@H](CN(C)Cc2ccccc2)O3)cc1,28.3
Cc1ccc(S(=O)(=O)Nc2ccc3c(c2)C(=O)N([C@H](C)CO)C[C@H](C)[C@H](CN(C)C(=O)Nc2ccc4c(c2)OCO4)OCCCC[C@@H](C)O3)cc1,4.5
Cc1noc(C)c1NC(=O)N(C)C[C@H]1Oc2ccc(N(C)C)cc2CC(=O)N([C@@H](C)CO)C[C@H]1C,-1.0
C[C@H]1CN([C@@H](C)CO)C(=O)Cc2cc(NS(=O)(=O)c3ccc(Cl)cc3)ccc2O[C@@H]1CN(C)S(=O)(=O)c1cn(C)cn1,-13.6
Cc1noc(C)c1NC(=O)Nc1cccc2c1O[C@@H](CN(C)S(=O)(=O)c1cn(C)cn1)[C@@H](C)CN([C@H](C)CO)C2=O,-9.4
O=C(Cn1nnc(-c2ccccc2)n1)Nc1ccccc1C(=O)O,-9.5
CC(CN1CCCCC1)NC(=O)c1cc(-c2ccccn2)nc2ccc(Br)cc12 (stereo unspecified),24.1
C[C@H](CO)N1C[C@H](C)[C@@H](CN(C)C(=O)Nc2ccc(C(F)(F)F)cc2)Oc2ccc(NC(=O)Nc3ccc(C(F)(F)F)cc3)cc2C1=O,104.2*
O=C(COc1ccc(Cl)c2cccnc12)Nc1cccc([N+](=O)[O-])c1,0.7
Cc1cccc(NC(=O)CSc2nnc(-c3ccco3)n2C)c1C,-18.4
C[C@H]1CN([C@@H](C)CO)C(=O)c2cccc(NC(=O)c3ccc(-c4nccs4)cc3)c2O[C@H]1CN(C)Cc1ccncc1,11.9
CNC[C@H]1Oc2ccc(NC(=O)Cn3cnnn3)cc2C(=O)N([C@@H](C)CO)C[C@H]1C,8.1
COc1cc2c(cc1OC)CN(C(=O)CSc1ncnc3sc(C)c(C)c13)CC2,-17.9
CC(C)NCc1ccccc1OCC(N)=O,32.4
C[C@@H]1CN([C@@H](C)CO)C(=O)Cc2cc(NC(=O)Cn3cnnn3)ccc2O[C@@H]1CN(C)S(=O)(=O)c1cn(C)cn1,-10.4
Cc1cc(OCC(=O)Nc2ccccc2C(=O)O)cc(C)c1Cl,-9.0
C[C@@H]1CN([C@@H](C)CO)C(=O)c2cc(NC(=O)Nc3ccc(F)cc3)ccc2O[C@H]1CN(C)C(=O)Nc1ccccc1,0.4
C[C@@H]1CN([C@H](C)CO)C(=O)c2cccc(NC(=O)C3CCCCC3)c2O[C@H]1CN(C)C(=O)NC1CCCCC1,11.9
O=S(=O)(Nc1ncccn1)c1ccc(NC(=S)Nc2ccc3c(c2)OCCO3)cc1,-11.7
C[C@H]1CN([C@@H](C)CO)C(=O)c2cccc(NC(=O)Nc3ccccc3)c2O[C@H]1CN(C)S(=O)(=O)c1cn(C)cn1,3.6
COc1ccc(NC(=O)N(C)C[C@H]2Oc3c(NC(=O)Nc4ccc(C(F)(F)F)cc4)cccc3C(=O)N([C@@H](C)CO)C[C@@H]2C)cc1,42.3
C[C@H](CO)N1C[C@H](C)[C@@H](CN(C)Cc2ccc(Oc3ccccc3)cc2)Oc2c(NS(=O)(=O)c3ccc(F)cc3)cccc2C1=O,32.3
C[C@H]1CN([C@@H](C)CO)C(=O)Cc2cc(NS(=O)(=O)c3ccc(F)cc3)ccc2O[C@H]1CN(C)Cc1ccc2c(c1)OCO2,42.2
C[C@H]1CN([C@@H](C)CO)C(=O)c2cccc(NC(=O)c3ccc(-c4nccs4)cc3)c2O[C@@H]1CN(C)S(=O)(=O)c1ccc(F)cc1,16.9
O=C(Cn1cnc2sc3c(c2c1=O)CCCC3)NCCC(=O)N1CCN(c2ccc(F)cc2)CC1,-0.4
COC(=O)c1ccc(NC(=O)CN(c2cc(C(F)(F)F)ccc2Cl)S(C)(=O)=O)cc1,9.1
COc1ccc(NC(=O)C(C)(C)Oc2ccc(Cl)cc2)c([N+](=O)[O-])c1,-15.9
Cc1ccc(S(=O)(=O)Nc2ccc3c(c2)C(=O)N([C@@H](C)CO)C[C@H](C)[C@H](CN(C)Cc2ccc(-c4ccccc4)cc2)O3)cc1,56.4
C[C@H]1CN([C@@H](C)CO)C(=O)Cc2cc(NC(=O)Cn3cnnn3)ccc2O[C@@H]1CN(C)C,-9.1
COc1ccc(CN(C)C[C@H]2Oc3ccc(NC(=O)Cc4cn(C)c5ccccc45)cc3CC(=O)N([C@@H](C)CO)C[C@H]2C)cc1,47.1
C[C@H](CO)N1C[C@H](C)[C@H](CN(C)C)Oc2ccc(NS(=O)(=O)c3ccc(Cl)cc3)cc2CC1=O,21.2
Cc1ccc(Oc2nnc(-c3cccs3)c3ccccc23)cc1,4.8
CCOC(=O)c1c(NC(=O)COc2ccccc2Cl)sc2c1CCCC2,8.8
C[C@H](CO)N1C[C@H](C)[C@@H](CN(C)S(=O)(=O)c2cccs2)Oc2ccc(NS(=O)(=O)c3ccc(F)cc3)cc2C1=O,-8.7
C[C@H]1CN([C@@H](C)CO)C(=O)c2cc(NC(=O)CCC(F)(F)F)ccc2O[C@H]1CN(C)Cc1ccc2c(c1)OCO2,16.6
C[C@H]1CN([C@@H](C)CO)C(=O)Cc2cc(NS(=O)(=O)c3ccccc3)ccc2O[C@H]1CN(C)Cc1ccc(C(=O)Nc2ccccc2N)cc1,140.9*
O=C1NC2CCc3nc4ccccc4c(=O)n3C2=Nc2ccccc21 (stereo unspecified),9.1

# The final 4 compounds of the section before are carried over, then new ones follow:
SMILES,NOMO-1 viab
C[C@H](CO)N1C[C@H](C)[C@@H](CN(C)S(=O)(=O)c2cccs2)Oc2ccc(NS(=O)(=O)c3ccc(F)cc3)cc2C1=O,-8.7
C[C@H]1CN([C@@H](C)CO)C(=O)c2cc(NC(=O)CCC(F)(F)F)ccc2O[C@H]1CN(C)Cc1ccc2c(c1)OCO2,16.6
C[C@H]1CN([C@@H](C)CO)C(=O)Cc2cc(NS(=O)(=O)c3ccccc3)ccc2O[C@H]1CN(C)Cc1ccc(C(=O)Nc2ccccc2N)cc1,140.9*
O=C1NC2CCc3nc4ccccc4c(=O)n3C2=Nc2ccccc21 (stereo unspecified),9.1
CNC[C@@H]1Oc2c(NS(C)(=O)=O)cccc2C(=O)N([C@@H](C)CO)C[C@@H]1C,7.6
C[C@@H]1CN([C@@H](C)CO)C(=O)c2cc(NS(C)(=O)=O)ccc2O[C@@H]1CN(C)Cc1ccc(C(=O)Nc2ccccc2N)cc1,43.7
c1ccc(-n2ncc3c(N4CCc5ccccc54)ncnc32)cc1,-3.9
COc1ccc(NC(=O)N(C)C[C@@H]2Oc3ccc(NC(=O)Cn4cnnn4)cc3C(=O)N([C@H](C)CO)C[C@@H]2C)cc1,-7.8
CSc1nc(-c2cccnc2)nc(-c2ccc(OC(F)(F)F)cc2)c1C#N,12.2
C[C@@H]1CN([C@@H](C)CO)C(=O)c2cc(NC(=O)Nc3cccc4ccccc34)ccc2O[C@H]1CN(C)C(=O)Nc1ccc2c(c1)OCO2,-4.3
C[C@@H]1CN([C@H](C)CO)C(=O)c2cccc(NS(C)(=O)=O)c2O[C@@H]1CN(C)S(=O)(=O)c1ccccc1,-1.7
C[C@H](CO)N1C[C@H](C)[C@@H](CN(C)Cc2ccc(Cl)c(Cl)c2)Oc2c(NC(=O)c3nc4ccccc4s3)cccc2C1=O,57.0
COc1cc([C@H]2OC[C@H]3[C@@H]2CO[C@@H]3c2ccc3c(c2)OCO3)cc(OC)c1OC,-2.7
C[C@@H]1CCCCO[C@@H](CN(C)Cc2ccc(C(=O)O)cc2)[C@@H](C)CN([C@H](C)CO)C(=O)c2cc(NC(=O)Nc3ccccc3)ccc2O1,16.9
C[C@@H]1CN([C@H](C)CO)C(=O)c2cc(NC(=O)Nc3ccc4c(c3)OCO4)ccc2O[C@@H]1CN(C)C(=O)Nc1ccc(F)cc1,33.1
CC1=C(C(=O)Nc2ccccc2)C(c2ccco2)n2ncnc2N1 (stereo unspecified),29.7
Cc1noc(C)c1NC(=O)N(C)C[C@H]1Oc2c(NC(=O)CCCCCC(=O)Nc3ccccc3N)cccc2C(=O)N([C@H](C)CO)C[C@@H]1C,17.6
COC(=O)c1ccc(C)c(NC(=O)CN2C(=O)c3ccccc3S2(=O)=O)c1,28.0
COc1ccc(NC(=O)Nc2ccc3c(c2)CC(=O)N([C@H](C)CO)C[C@@H](C)[C@H](CN(C)CC2CC2)O3)cc1,-6.1
Cc1noc(C)c1NC(=O)N(C)C[C@@H]1Oc2ccc(NC(=O)C3CCCCC3)cc2CC(=O)N([C@H](C)CO)C[C@@H]1C,18.0
O=C(O)CSc1nnc(-c2ccc(Cl)cc2)n1-c1ccccc1,-7.5
O=C(O)CCNc1cc(Cl)ccc1Oc1ccc(Cl)cc1,0.6
COc1ccc(NC(=O)N(C)C[C@@H]2Oc3ccc(NS(=O)(=O)c4ccc(C)cc4)cc3CC(=O)N([C@H](C)CO)C[C@H]2C)cc1,3.4
CC(C)NC(=O)N(C)C[C@H]1Oc2ccc(NC(=O)CCN3CCOCC3)cc2C(=O)N([C@@H](C)CO)C[C@H]1C,11.3

# Rewritten as tab-separated lines: part of the list above.
Structure	NOMO-1 viab
CNC[C@@H]1Oc2c(NS(C)(=O)=O)cccc2C(=O)N([C@@H](C)CO)C[C@@H]1C	7.6
C[C@@H]1CN([C@@H](C)CO)C(=O)c2cc(NS(C)(=O)=O)ccc2O[C@@H]1CN(C)Cc1ccc(C(=O)Nc2ccccc2N)cc1	43.7
c1ccc(-n2ncc3c(N4CCc5ccccc54)ncnc32)cc1	-3.9
COc1ccc(NC(=O)N(C)C[C@@H]2Oc3ccc(NC(=O)Cn4cnnn4)cc3C(=O)N([C@H](C)CO)C[C@@H]2C)cc1	-7.8

# (list continues)
SMILES,NOMO-1 viab
C[C@@H]1CCCCO[C@H](CN(C)Cc2ccc(C(F)(F)F)cc2)[C@@H](C)CN([C@H](C)CO)C(=O)c2cc(NC(=O)CCCCCC(=O)Nc3ccccc3N)ccc2O1,131.2*
COc1ccc(S(=O)(=O)Nc2ccc3c(c2)C(=O)N([C@H](C)CO)C[C@H](C)[C@H](CN(C)Cc2ccc(C(=O)Nc4ccccc4N)cc2)O3)cc1,?
C[C@H](CO)N1C[C@H](C)[C@H](CN(C)C(=O)Nc2ccc3c(c2)OCO3)Oc2ccc(NC(=O)C3CCCCC3)cc2C1=O,10.6
CNC[C@@H]1Oc2ccc(NC(=O)NC3CCCCC3)cc2CC(=O)N([C@H](C)CO)C[C@H]1C,1.8
C[C@@H]1CN([C@H](C)CO)C(=O)Cc2cc(NS(=O)(=O)c3cccs3)ccc2O[C@H]1CN(C)C(=O)NC1CCCCC1,2.3
COc1ccc(NC(=O)N(C)C[C@@H]2Oc3ccc(NS(=O)(=O)c4cccs4)cc3C(=O)N([C@H](C)CO)C[C@@H]2C)cc1,3.1
Cc1cc(CN2CCN(CCC#N)CC2)c(O)c(C2(C)CCCCC2)c1,30.7
C[C@@H]1CN([C@@H](C)CO)C(=O)c2cc(NC(=O)Cc3ccccc3)ccc2O[C@@H]1CN(C)Cc1ccc(C(=O)Nc2ccccc2N)cc1,109.0*
C[C@@H]1CN([C@H](C)CO)C(=O)Cc2cc(NC(=O)Cc3ccccc3)ccc2O[C@H]1CN(C)C(=O)Nc1ccc(C(F)(F)F)cc1,17.4
Cc1cc(N(CC(=O)Nc2ccc(F)c(Cl)c2)S(C)(=O)=O)ccc1Br,92.8*
N/N=C(/Cn1nnc(N2CCCCC2)n1)c1ccc(Cl)cc1,8.6
C[C@H]1CN([C@@H](C)CO)C(=O)Cc2cc(NS(=O)(=O)c3ccc(F)cc3)ccc2O[C@H]1CN(C)Cc1ccc(Cl)c(Cl)c1,?
CNC[C@H]1Oc2ccc(NC(=O)Cn3cnnn3)cc2C(=O)N([C@H](C)CO)C[C@H]1C,-16.0
CC(C)NC(=O)N(C)C[C@@H]1Oc2ccc(NC(=O)CCCCCC(=O)Nc3ccccc3N)cc2CC(=O)N([C@@H](C)CO)C[C@@H]1C,26.6
Cc1noc(C)c1NC(=O)Nc1ccc2c(c1)C(=O)N([C@@H](C)CO)C[C@H](C)[C@@H](CN(C)C(=O)NC1CCCCC1)O2,33.6
C[C@@H]1CCCCO[C@@H](CN(C)Cc2ccc3c(c2)OCO3)[C@@H](C)CN([C@H](C)CO)C(=O)c2cc(NC(=O)Nc3cccc4ccccc34)ccc2O1,35.0
CC1OC(OCC2OC(OCC3(C)C(O)CCC4(C)C3CCC3(C)C4CCC4C5=CC(C)(C)CCC5(C(=O)O)CCC43C)C(O)C(O)C2O)C(O)C(O)C1O (stereo unspecified),5.1
CC(C)NC(=O)N(C)C[C@H]1Oc2c(cccc2N(C)C)C(=O)N([C@H](C)CO)C[C@H]1C,16.1
O=C(O)c1cccc(NC(=O)C2(c3ccccc3)CCN(S(=O)(=O)c3ccccc3)CC2)c1,-25.3
C[C@@H]1CN([C@H](C)CO)C(=O)c2cc(NS(=O)(=O)c3cn(C)cn3)ccc2O[C@@H]1CN(C)Cc1ccc(Cl)c(Cl)c1,-5.3
Cc1cc(OCC(=O)Nc2cc(-c3nc4ncccc4o3)ccc2C)ccc1Cl,66.2
Cc1noc(C)c1NC(=O)N(C)C[C@@H]1Oc2ccc(NC(=O)C3CC3)cc2CC(=O)N([C@H](C)CO)C[C@@H]1C,2.9
C[C@@H]1CCCCO[C@@H](CN(C)C(=O)CCC(F)(F)F)[C@@H](C)CN([C@H](C)CO)C(=O)c2cc(NC(=O)Nc3ccccc3)ccc2O1,3.6
C[C@@H]1CN([C@@H](C)CO)C(=O)Cc2cc(NC(=O)C3CCCCC3)ccc2O[C@@H]1CN(C)Cc1ccc(C(=O)O)cc1,13.2
